ClpP mod: qHTS Assay for Activators of ClpP | ATP-dependent Clp protease proteolytic subunit (Bacillus subtilis (strain 168)), P80244 | purified B. subtilis ClpP, FRET peptide cleavage, 20 min | Potency, µM (titrated, usually from 57.5 µM), without a hit: top-dose activity change, negative = active | 340,000 tested, 1.9% active | AID 651965, 2013; active = well fitted falling curve with a large enough effect; inconclusive = small, poorly fitted or top-dose-only effect; inactive = no such curve, though single readings can be large or run the other way; also: the source files actives as falling curves though it sought activators and does not explain the sign; nearly all actives have a fitted effect of over 65% in size; many hits overshoot -100%
Target sequence (P80244 whole entry, looked up): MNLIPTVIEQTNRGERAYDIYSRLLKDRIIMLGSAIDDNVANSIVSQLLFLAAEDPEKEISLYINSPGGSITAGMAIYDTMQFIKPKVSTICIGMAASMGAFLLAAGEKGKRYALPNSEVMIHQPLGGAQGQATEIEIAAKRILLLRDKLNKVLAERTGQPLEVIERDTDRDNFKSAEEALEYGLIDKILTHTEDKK
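Buffer: 100 mM Tris/HCl pH8, 100 mM KCl, 0.05% low protease BSA, 2.5% glycerol, 0.01% Tween-20. ClpP 10 microg/mL final; 20 min RT; delta FRET normalized to ADEP and DMSO controls.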
Numbers without * were called inactive; ? = inconclusive. Potency is read from the fitted curve at half-maximal effect. An excerpt; count on the stated rates, not on these rows.

SMILES,ClpP mod
CCc1ccc(-n2nc(CO)c(C(=O)NC(C)c3ccc(Cl)cc3)n2)cc1 (stereo unspecified),?
COc1ccc2c(c1)c(=O)c(C(=O)c1ccc(C)cc1)cn2Cc1ccccc1F,0.7%
CC(=O)Nc1ccc(NC(=O)Cn2cc3c(n2)CCCCC3)cc1,1.9%
O=C(Cn1cc(SCc2cccc(C(F)(F)F)c2)c2ccccc21)N1CCCCCC1,2.3%
Cc1ccc(S(=O)(=O)NCCc2nnc3ccc(SCC(=O)Nc4c(C)cc(C)cc4C)nn23)cc1,-6.6%
COc1ccc(OC)c(NC(=O)Cn2cc(S(=O)(=O)c3ccccc3)c(=O)c3cc(C)ccc32)c1,-3.1%
CCc1cccc(NC(=O)CSC2=Nc3ccccc3N=C(c3ccc(F)cc3)C2)c1,-2.1%
Cc1ccc2c(c1)N(C(=O)NCc1ccccc1)CCO2,-0.4%
Cc1cccc(N2CCN(C(=O)c3ccc4nc(N5CCC(C)CC5)sc4c3)CC2)c1C,-5.4%
COc1ccc(OC)c(S(=O)(=O)NCC(c2ccc(N(C)C)cc2)N2CCOCC2)c1 (stereo unspecified),-4.0%
Cn1c(=O)c2c(-c3ccccc3Br)n(C(C)(C)C)cc2n(C)c1=O,-11.7%
Cc1ccc(C)c(Cn2c(C(=O)O)c(CNCc3cccs3)c3ccccc32)c1,-12.5%
O=C(C[n+]1cccc(Br)c1)c1ccc(O)c(O)c1,1.9%
Cc1cc(C)c2c(=O)cc(C(=O)NCc3ccc(S(N)(=O)=O)cc3)oc2c1,-0.2%
COC(=O)c1ccc(NC(=O)c2cc(S(=O)(=O)N3CCc4ccccc43)cn2C)cc1,-19.5%
Cc1sc(C2C(C#N)=C(N)N(c3cccc(Cl)c3)C3=C2C(=O)CCC3)cc1CN1CCOCC1 (stereo unspecified),-23.6%
CC(C)c1ccc(CNc2nc(-c3ccco3)nn2C(=O)c2ccc([N+](=O)[O-])cc2)cc1,1.0%
Cc1c(NC(=O)C(C)(C)C)cccc1-c1nc2ccccc2s1,-1.9%
Cc1ccc2oc(=O)c3cnn(CC(=O)N4CCN(c5cccc(Cl)c5)CC4)c3c2c1,2.0%
Cc1ccc(Nc2nc(N)nc(N)c2S(=O)(=O)c2ccccc2)cc1,0.2%
COc1ccc2nc(N(Cc3cccnc3)C(=O)C3CCCCC3)sc2c1,2.7%
CCC(Sc1nnc2c3ccccc3n(CC)c2n1)C(=O)Nc1ccc(NC(C)=O)cc1 (stereo unspecified),-3.4%
COc1cccc(-c2nc(SC(C(C)=O)C(=O)N(C)C)c3c(=O)n(C)c(=O)n(C)c3n2)c1 (stereo unspecified),-14.8%
Cc1ccc(C(=O)c2c(N)c(-c3nc(-c4ccc5c(c4)OCO5)cs3)c3ccccn23)cc1C,-1.6%
Cc1cc(C)cc(NC(=O)CCc2nnc3n(C)c(=O)c4sccc4n23)c1,2.6%
COc1ccc(C(=O)Nc2nnc(SCc3cc(=O)c4cccc(F)c4[nH]3)s2)cc1,-2.9%
CCc1cccc(C)c1Nc1c(-c2ccc(F)cc2)nc2sccn12,2.4%
CCOc1ccc(C(=O)Nc2ccc(S(=O)(=O)N(Cc3ccccc3)c3ccccc3)cc2)cc1,?
O=C(COc1ccccc1C(=O)Nc1ccccc1)NCCCCc1ccccc1,-11.5%
COc1ccccc1CNC(=O)CCC1N=C2c3ccccc3N=C(SCC(=O)NCCc3ccccc3)N2C1=O (stereo unspecified),-10.7%

More records:
SMILES,ClpP mod
Cc1nc2cc(-c3cccc(F)c3)nn2c(C)c1CCC(=O)NCCc1ccccc1,-19.4%
COC(=O)c1ccc([C@H]2Nc3ccc(S(=O)(=O)Nc4ccc(F)cc4)cc3[C@H]3C=CC[C@H]32)cc1,0.2%
CCOc1ccc(N2CC(c3nc4ccccc4n3CCCOc3ccccc3)CC2=O)cc1 (stereo unspecified),1.6%
COc1ccc(NC(=O)CCc2c(C)nc3c(-c4ccc(F)cc4)c(C)nn3c2C)c(OC)c1,-9.6%
Cc1ccc(CNC(=O)CCCCCn2c(=O)c3sccc3n(CC(=O)Nc3c(C)cc(C)cc3C)c2=O)cc1,-0.4%
COc1ccccc1NC(=O)Cn1c(=O)n(-c2cccc(Cl)c2)c(=O)c2sc3ccccc3c21,2.2%
O=C(COc1ccccc1Cl)Nc1ccc(Cl)c(-c2nc3ccccc3o2)c1,-4.8%
O=C(Nc1ccccc1F)c1nc(S(=O)(=O)Cc2ccccc2F)ncc1Cl,3.3%
CC(=O)Nc1cccc(NC(=O)CN2C(=O)CCSc3ccccc32)c1,-0.2%
O=C(Cc1ccc(OCCCCc2ccccc2)cc1)NO,2.2%
Cc1ccccc1CN1CCc2nc(Nc3ccc4c(c3)OCCO4)ncc2C1,-5.2%
Cc1ccc(C)c(N2CCN(CCCNC(=O)c3cnn(-c4cccc(Cl)c4)c3C3CCN(C(=O)OC(C)(C)C)CC3)CC2)c1,-0.4%
COc1cc2c(cc1OC)C(COc1ccc(F)cc1)N(C(=O)c1ccccc1F)CC2 (stereo unspecified),-3.6%
O=C(Cn1c(=O)n(Cc2ccco2)c(=O)c2oc3ccccc3c21)Nc1ccc(F)cc1F,?
Cc1ccc(-n2nc3c(N4CCC(C(=O)NC(C)C)CC4)nnc(C)c3c2C)cc1,-12.1%
Cc1ccc2c(c1)cc1c(=O)n(CC(=O)NC3CCCCC3)nc(C)n12,-1.9%
Cc1cc(C)cc(NC(c2cccc(Cl)c2)c2nnc(-c3ccccc3)o2)c1 (stereo unspecified),-3.4%
Cc1ccccc1Cn1c(SCc2ccc(C(=O)NCCc3ccccc3)cc2)nc2ccncc21,-15.3%
CC(C)c1ccc(NC(=O)CSc2nc3ccccc3nc2Cc2ccccc2)cc1,-1.2%
CCN1CCN(Cc2c(O)ccc3c(=O)c(Oc4ccccc4C(C)C)c(C(F)(F)F)oc23)CC1,0.9%
Cn1nnnc1SCCCNCc1cccc(OCc2ccccc2)c1,0.0%
COc1ccc(S(=O)(=O)N2CCC(C(=O)Nc3ccc(Oc4ccccc4)cc3)CC2)cc1,1.9%
O=S(=O)(c1ccccc1Cl)N1CCN(c2nc(-c3ccccc3)nc3ccccc23)CC1,1.2%
CCCSCCCNC(=O)C1CCN(C(=O)c2cnn(-c3ccccc3)c2-n2cccc2)CC1,-1.5%
CCc1nnc2c(Nc3ccc(N(CC)CC)cc3C)nc3ccccc3n12,0.0%
CC(C)N(Cc1ccccc1)C(=O)C1CCCN(c2ncnc3onc(-c4ccc(F)cc4)c23)C1 (stereo unspecified),-7.1%
COc1ccc2c(c1)CC(C(=O)Nc1ccc(OC)cc1OC)CO2 (stereo unspecified),0.3%
Cc1ccccc1N1CCN(S(=O)(=O)c2nnc(NC(=O)c3ccccc3)s2)CC1,-16.8%
COc1ccc(-c2nc3cccc(C)n3c2Nc2ccc(C)cc2)cc1,4.5%
O=C(Nc1ccc(S(=O)(=O)Nc2ncccn2)cc1)c1cc(=O)c2ccccc2o1,-0.9%

Given field by field: part of the list above
Structure: COc1cc2c(cc1OC)C(COc1ccc(F)cc1)N(C(=O)c1ccccc1F)CC2 (stereo unspecified)
- ClpP mod = -3.6%

Structure: O=C(Cn1c(=O)n(Cc2ccco2)c(=O)c2oc3ccccc3c21)Nc1ccc(F)cc1F
- ClpP mod = ?

Structure: Cc1ccc(-n2nc3c(N4CCC(C(=O)NC(C)C)CC4)nnc(C)c3c2C)cc1
- ClpP mod = -12.1%

(further entries)
SMILES	ClpP mod
COc1ccc(CNC(=O)c2cc3ccccn3n2)cc1OC	-20.2%
CCOC(=O)C1=C(CN(CC)Cc2ccccc2)NC(=O)NC1c1ccc(Cl)cc1 (stereo unspecified)	-1.6%
CCCC1OC2C[C@@H]3[C@H]4CCC5=CC(=O)C=C[C@]5(C)[C@H]4C(O)C[C@]3(C)[C@]2(C(=O)CO)O1 (stereo partly specified)	-2.7%
CCc1ccc(NC(=O)CCS(=O)(=O)c2cc3c(cc2Cl)NC(=O)CO3)cc1	-0.4%
CC(C)Oc1ccc(C(=O)Nc2ccc(-c3nc4ccccc4s3)cc2)cc1	-19.6%
CCc1ccccc1NC(=O)Cn1nc(CC)n2c(cc3sccc32)c1=O	-2.2%
COc1cccc(-c2nc(SCC(=O)NC3CCCC3)c(-c3ccc(F)cc3)[nH]2)c1	35.5µM*
Cc1cc(C)cc(Nc2cc(C)nc3nncn23)c1	1.5%
COc1cc(Cl)c(NC(=O)CC(C)S(=O)(=O)c2cc3c(cc2C)NC(=O)CO3)c(OC)c1 (stereo unspecified)	1.6%
COC(=O)c1ccccc1NS(=O)(=O)c1cc2c3c(c1)CC(=O)N3CCC2	-2.0%
COc1cc(Br)c(C2CC(=O)Nc3cc4c(cc32)OCCO4)cc1OC (stereo unspecified)	0.0%
COc1ccc(C(=O)Nc2cc3c(cc2C(=O)c2ccccc2Cl)OCCO3)cc1	4.1%
Cc1ccc(-c2nc(=Nc3c(C)cc(C)cc3C)sn2-c2ccccc2)cc1	1.8%
CN(C)c1ccc(/C=C/c2ccnc3ccc(-c4ccccc4)cc23)cc1	0.2%
CCOC(=O)c1ccccc1NC(=O)N1CCCn2nc(C)cc21	-10.0%
COc1cc(OC)c(C2C=C(C(=O)O)Nc3ncnn32)cc1OC (stereo unspecified)	-0.8%
COC(=O)c1ccccc1NC(=O)CSc1nc(=O)cc(N)n1-c1ccccc1	-4.6%
CC(=O)N1CCc2cc(S(=O)(=O)C(C)CC(=O)Nc3ccc(Br)c(C)c3)ccc21 (stereo unspecified)	1.0%
CCCCCn1c(=O)[nH]c2cc(C(=O)N3CCN(c4ccccc4)CC3)ccc2c1=O	-0.3%
CCCCOc1ccc(CN2C(=O)C(=O)c3cc(C)ccc32)cc1OC	2.4%

Next results:
SMILES	ClpP mod
Cc1cc(Sc2ccc(Cl)cc2)nc2ccccc12	-16.8%
CCN(CC)C(=O)C1=C(C)Nc2nc3ccccc3n2C1c1ccccc1F (stereo unspecified)	-8.6%
CCN1CCN(C(=O)c2ccc3c(c2)N(Cc2ccc(Cl)cc2)C(=O)c2ccccc2S3=O)CC1 (stereo unspecified)	0.9%
Cc1nc2ccn(Cc3cccs3)c(=O)c2cc1C(=O)NCc1ccc(Br)cc1	4.4%
COc1ccc(NC(=O)CN2C(=O)CC(c3ccc(C)c(C)c3)=Nc3ccccc32)cc1OC	-2.3%
COc1ccccc1C(=O)Nc1c(C(=O)c2ccccc2)oc2ccccc12	-1.4%
CCN1C(=O)c2ccccc2S(=O)c2ccc(C(=O)N3CCN(c4cc(Cl)ccc4C)CC3)cc21 (stereo unspecified)	-1.7%
O=C(CN1C(=O)COc2ccc(S(=O)(=O)N3CCCC3)cc21)N1CCN(c2cccc(C(F)(F)F)c2)CC1	-2.5%
O=C(CSc1nc2c(c(=O)[nH]1)CCCC2)Nc1cccc(O)c1	1.7%
CCOc1ccccc1NC(=O)C(=O)NCCc1sc(-c2cccc(F)c2)nc1C	1.2%
COc1cc(C2c3c(oc4ccc(F)cc4c3=O)C(=O)N2Cc2ccc3c(c2)OCO3)ccc1O (stereo unspecified)	-5.5%
Clc1ccccc1CNCCCSc1nnnn1-c1ccccc1	-1.2%
C(=Nc1cnc2ccccc2c1)c1ccnc2ccccc12	3.8%
O=C1CS(=O)(=O)C2(C(=O)N(Cc3cccc(F)c3)c3ccccc32)N1c1ccccc1 (stereo unspecified)	-2.4%
CCOc1ccc(NC(=O)c2ncn(-c3ccccc3)n2)cc1	-2.6%
CC(=O)N1CCN(c2csc3ccc(Cl)cc3c2=O)CC1	-22.0%
COc1ccc(CNC(=O)CS(=O)Cc2nc(-c3cccc(C)c3)oc2C)cc1 (stereo unspecified)	-4.0%
CCOc1ccc(CNc2nc3nc(C)c(Cc4ccccc4)c(=O)n3[nH]2)cc1	-1.6%
Cc1cccc2sc(N(Cc3cccnc3)C(=O)C3CCCCC3)nc12	0.7%
CCCCNC(=O)c1cnn2c(C)c(Cc3c(F)cccc3Cl)c(C)nc12	-7.5%

New compounds follow:
SMILES	ClpP mod
COc1ccc(C(=O)NCCn2cc(SCc3cccc(F)c3)c3ccccc32)cc1OC	-4.1%
Cc1ccc(C)c(NC(=O)Cn2c(=O)ccc3cc(S(=O)(=O)N4CCCC4)ccc32)c1	3.1%
COc1cccc(CSc2nc3n(n2)C(CC(C)C)C(C(=O)Nc2ccccc2C)=C(C)N3)c1 (stereo unspecified)	-10.1%
Cc1ccc(O)c(NC(=O)c2cc(-c3ccc4c(c3)OCO4)on2)c1	-0.2%
CCC(C)(C)NC(=O)C1CCN(S(=O)(=O)c2c(C)noc2/C=C/c2ccc(C)cc2)CC1	?
CCOc1ccc(S(=O)(=O)NCC(c2cccs2)S(=O)(=O)c2ccc(C)cc2)cc1 (stereo unspecified)	3.1%
CC(=O)c1ccc(NC(=O)c2cc(C)nn2-c2ccccc2)cc1	1.1%

Single values from above.
ClpP mod with COc1cccc(CSc2nc3n(n2)C(CC(C)C)C(C(=O)Nc2ccccc2C)=C(C)N3)c1 (stereo unspecified) reads -10.1%
ClpP mod with Cc1ccc(O)c(NC(=O)c2cc(-c3ccc4c(c3)OCO4)on2)c1 reads -0.2%
ClpP mod with CCOc1ccc(S(=O)(=O)NCC(c2cccs2)S(=O)(=O)c2ccc(C)cc2)cc1 (stereo unspecified) reads 3.1%

Fetched by structure from the list above (three):
SMILES	ClpP mod
O=C(CN1C(=O)COc2ccc(S(=O)(=O)N3CCCC3)cc21)N1CCN(c2cccc(C(F)(F)F)c2)CC1	-2.5%
COc1ccccc1CNC(=O)CCC1N=C2c3ccccc3N=C(SCC(=O)NCCc3ccccc3)N2C1=O (stereo unspecified)	-10.7%
COc1cc(OC)c(C2C=C(C(=O)O)Nc3ncnn32)cc1OC (stereo unspecified)	-0.8%

Assay outcomes as filed in PubChem.
